ugtP null kill – kills S. aureus RN4220 lacking UgtP. AID 1259309. S. aureus RN4220 ugtP deletion, OD600 growth, 16 h; some inactives read as strong as hits. growth inhibition, % (test concentration not listed). actives 0.54% (n = 330,000);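 active = z-score under -3 and OD600 up to 0.15 on both plates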;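 also: plate controls were untreated wells for no effect and antibiotic for full effect; wells of about 80 µL received 100 nL stock; the first replicate is given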
BJeLR viability – kills HRASV12-expressing BJeLR cells. inhibition, % (no concentration beside the values). AID 1554. BJeLR (HRASV12) viability, CellTiter-Glo ATP luminescence, 48 h; reference of the scale not given here. actives 0.17% (n = 300,000);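 active = replicate mean above 50%; inconclusive = above 50% but judged a plate artefact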;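 also: 50 nL library stock added to about 25 µL; numbers are from one replicate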
Autofluor counter – compound fluorescence in toxin protease inhibitor counterscreen. AID 624483. actives 3.1% (n = 360,000). compound autofluorescence counterscreen, microsphere flow cytometry; active compounds read high. fluorescence intensity (concentration not given with the values);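 active = at least 3 SD above the mean of all compounds, about 16000 in these data; inconclusive = too few beads counted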;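 also: 100 nL of 1 mM stock went into each well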
PrP 5UTR inh – inhibition of PrP 5' UTR reporter expression; cell-based PrP 5' UTR mRNA reporter, plate reader; inhibition, % (no concentration beside the values); actives 0.35% (n = 340,000); AID 488862;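 active = every replicate at 50% or more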;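 also: 0 = median of the neutral control wells; tested in H4 reporter cells; numbers are from one replicate; inactives centre near -14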
RN4220 kill – kills Staphylococcus aureus RN4220; S. aureus RN4220 growth, OD600, 16 h; inhibition, % (concentration not given with the values); actives 0.33% (n = 330,000); AID 1259311;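 active = z-score of -3 or lower and OD600 up to 0.18 on both plates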;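 also: plate controls were untreated cells for no effect and reference antibiotic for full effect; stock transfer was 100 nL into about 80 µL; one replicate is shown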
Mtb hypoxia rep – inhibitors of hypoxia-regulated fluorescent reporter in Mycobacterium tuberculosis; fluorescence inhibition, % (concentration not given with the values); actives 0.1% (n = 300,000); M. tuberculosis hypoxia-regulated fluorescent reporter, fluorescence;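 active = 35 to 45% if threefold the growth effect, above 45% if 1.5-fold the growth effect; inactive = the rest, general growth blockers included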;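 also: wells of about 50 µL received 100 nL stock; 0% = vehicle wells and 100% = reference inhibitor wells; whole bacteria with a GFP reporter of the hypoxia response; strong numbers were not always called active; many hits fall short of the cut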
Mtb hypoxia rep growth – also measured in Mtb hypoxia rep; calls as there; growth inhibition, %; measured here: M. tuberculosis growth (absorbance);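 0% = vehicle and 100% = reference antibiotic; read after six days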
* marks the source's active call; other numbers are inactive results; ? = inconclusive; · = no result given; & = joins results of further samples.

SMILES	ugtP null kill	BJeLR viability	Autofluor counter	PrP 5UTR inh	RN4220 kill	Mtb hypoxia rep	Mtb hypoxia rep growth
CCC(C)C(=O)Nc1nc(C)c(-c2csc(Nc3ccc(Cl)cc3)n2)s1 (stereo unspecified)	-39	5	3924	-5	-15	5	6
O=C(CC1Oc2ccccc2NC1=O)NCCCN1CCN(Cc2ccccc2)CC1 (stereo unspecified)	7	3	5924	-7	5.7	·	·
O=C(OCN1C(=O)c2ccccc2C1=O)c1cccnc1SC(F)F	4	-1	4105	-19	3.3	6	3
CC1(C)CC(=O)C(C=NCCN2CCN(C(=O)C34CC5CC(CC(C5)C3)C4)CC2)=C(O)C1	5	5	4619	-18	-0.2	·	·
Cc1ccc(N(C(=O)c2snc(C(N)=O)c2N)C(C(=O)NCc2ccccc2)c2ccncc2)c(C)c1 (stereo unspecified)	4	-5	6055	1	2.2	0	3
Cc1cc(NC(=O)COC(=O)C2CC(=O)N(c3ccccc3Cl)C2)no1 (stereo unspecified)	8	2	3408	-3	0.1	-12	-8
O=C(NCc1ccco1)c1c2c(nc3ccccc13)CCC2	-5	-2	3947	-16	6.7	8	9
CCN(c1ccccc1)S(=O)(=O)c1ccc(NC(=O)c2nc(S(C)(=O)=O)ncc2Cl)cc1	·	7	5157	12	·	·	·
COc1cc(NC(=O)CSCc2ccc(Cl)cc2Cl)c(C(=O)O)cc1OC	2	4	3154	-15	6.1	13	2
CCOc1ccc2nc3c(cc2c1)CN(CCOC)C(=NCCOC)S3	12	-2	7846	-7	3.7	5	1
CC1(C)OC2OC(C(=O)N/N=C/c3ccccc3F)C3OC(C)(C)OC3C2O1 (stereo unspecified)	·	0	2492	-17	·	·	·
O=C1N/C(=N/N=C/c2ccc(O)cc2)SC1Cc1ccccc1 (stereo unspecified)	·	-5	3781	-2	·	·	·
COc1cccc(NC(=O)CN(C)C(C)C(=O)NC(=O)NC2CCCCC2)c1 (stereo unspecified)	-1	·	9168	-13	2.9	10	2
CN(CCOC(=O)c1ccc2c(c1)OCCO2)Cc1ccccc1	25	5	4687	-10	4.2	·	·
CCOc1ccc(NCc2cccn2-c2nnc(N3CCC(C(=O)NCCCN4C(C)CCCC4C)CC3)s2)cc1 (stereo unspecified)	1	2	5473	-22	1.8	4	11
O=C(Oc1ccccc1OC(=O)N1CCOCC1)N1CCOCC1	10	8	4705	-92	-1.5	·	·
O=C(CSc1ncccc1-c1nc2ccccc2[nH]1)N1CCc2ccccc21	-1	5	2363	-91	-3.5	16	-3
COc1cc(C)nc(OCCNC(=O)COc2ccc(Cl)cc2Cl)n1	-10	1	2932	-5	-14	22	7
CC(C)CCNC(=S)NC1CCCC1	-4	-2	20284*	3	1.5	·	·
COC(=O)NN=Cc1cc(Cl)c(OCc2ccccc2F)c(OC)c1	-10	·	·	·	7.1	-2	9
Cc1cccc(NC(=O)CCSc2ccccn2)c1	·	5	2124	-32	·	·	·
Cc1onc(-c2c(Cl)cccc2Cl)c1C(=O)c1c[nH]c(C(=O)NC2CC2)c1	0	-6	23188*	-15	7.3	9	2
O=C(c1ccco1)N1CCN(Cc2cc(=O)oc3cc(O)ccc23)CC1	4	·	3393	-21	4.3	19	7
CC(C)CN(CC(C)C)C(=O)c1cc2c(=O)n3ccccc3nc2s1	4	-8	3908	-20	2.1	14	11
Cc1nc(SCC(=O)NCC2CCCO2)[nH]c(=O)c1C (stereo unspecified)	5	-7	?	2	2.4	0	-11

Quoted from above (two entries):
SMILES	ugtP null kill	BJeLR viability	Autofluor counter	PrP 5UTR inh	RN4220 kill	Mtb hypoxia rep	Mtb hypoxia rep growth
Cc1ccc(N(C(=O)c2snc(C(N)=O)c2N)C(C(=O)NCc2ccccc2)c2ccncc2)c(C)c1 (stereo unspecified)	4	-5	6055	1	2.2	0	3
Cc1cc(NC(=O)COC(=O)C2CC(=O)N(c3ccccc3Cl)C2)no1 (stereo unspecified)	8	2	3408	-3	0.1	-12	-8

New compounds follow.
SMILES	ugtP null kill	BJeLR viability	Autofluor counter	PrP 5UTR inh	RN4220 kill	Mtb hypoxia rep	Mtb hypoxia rep growth
O=C(CSc1nnc2ccc(-c3ccncc3)nn12)Nc1ccc(F)cc1	4	-1	4698	-26	6.8	6	2
COc1ccc(Nc2nnc(SC(C(=O)Nc3cc(C)ccc3C)c3ccccc3)s2)cc1 (stereo unspecified)	17	0	2789	-25	3.7	3	1
COc1ccccc1Nc1nc(NCCC(C)C)nc(N)c1[N+](=O)[O-]	-13	-6	6359	·	7.4	1	1
C/C(=N\NC(=O)COc1ccccc1F)c1cc2ccccc2o1	·	-14	7584	-56	·	·	·
Nc1nc(CSc2ncccn2)nc(Nc2ccccc2)n1	8	-15	6250	-47	6.2	19	5
Cc1ccc(NC(=O)COC(=O)Cn2cnc3c2c(=O)n(C)c(=O)n3C)cc1F	4	·	4985	-20	3.2	9	3
C=CCN1c2ccccc2[C@]23C[C@@H](C(=O)OC)N(C(=O)NCCC)C2=NC(C(=O)OC)=C(C(=O)OC)[C@H]13	·	-3	2926	-11	·	·	·
CC(=O)c1ccc(N=Nc2ccc(C)cc2)cc1	4	7	4203	26	-2.1	1	8
C=CCN(c1ccc(C(=O)N2CCCC2)cc1)S(C)(=O)=O	14	2	4383	-8	7.2	11	9
O=C(Nc1ccc2c(c1)OCCO2)c1ccc(NC(=O)C2CCCO2)cc1 (stereo unspecified)	0	-12	3656	-3	0.3	-5	18
c1ccc(CNc2ncnc3sc4c(c23)CCCC4)nc1	·	-2	3838	-21	·	·	·
CCOc1ccc(NC(=O)Nc2cccc(C(=O)O)c2)cc1	·	31	4975	88*	·	·	·
Cc1cccc(-c2nn(-c3ccccc3)cc2C(=O)N2CCN(C3CCS(=O)(=O)C3)CC2)c1 (stereo unspecified)	2	·	·	-29	2.9	8	-3
Cc1ccc(N=C2NC(=O)/C(=C/c3cccnc3)S2)c(C)c1	7	2	5569	-3	1.5	21	13
O=C(NCCc1ccccc1)C(=O)Nc1nccs1	4	-5	2513	-26	4.4	-11	-4
O=C(OCC(F)(F)F)c1cccc(COc2ccc3ccccc3c2)c1	24	-6	2392	63*	4.2	·	·
Cc1cn([C@H]2C=C[C@@H](CO)O2)c(=O)[nH]c1=O	4	-18	4354&5799	12&-12	1.6	6	14
O=[N+]([O-])c1ccc2oc(-c3ccccc3)nc2c1	-7	-7	4450	-106	16	10	5
O=C(CCN1C(=O)/C(=C/C=C/c2ccccc2)SC1=S)Nc1nccs1	9	9	3434	-18	4.8	1	-5
CC(C(=O)N1CCc2ccccc21)N1CCN(Cc2ccc(Cl)cc2)CC1 (stereo unspecified)	13	-10	5872	-6	4.5	5	6
O=C(O)c1ccc2c(c1)C(=O)N(c1cc(C(=O)O)ccc1Br)C2=O	4	0	8969	-31	3.7	3	9
O=C(N/N=C/c1ccccn1)C(=O)N1CCCCCC1	·	2	3241	-8	·	·	·
O=[N+]([O-])c1ccc(-c2c(O)c3ccccc3c3nc4ccccc4nc23)cc1	·	15	2005	-8	·	·	·
CC1CCCC(C)N1S(=O)(=O)c1ccc(NC(=O)CNC2CCCC2)cc1 (stereo unspecified)	-11	-3	3957	-6	3.3	15	0
Cc1c(NC(=O)c2cn3ccccc3n2)cccc1-n1cnnn1	-2	6	6030	-6	3.0	2	6

(further entries)
SMILES	ugtP null kill	BJeLR viability	Autofluor counter	PrP 5UTR inh	RN4220 kill	Mtb hypoxia rep	Mtb hypoxia rep growth
Cc1ccc(-n2ncc3c(N4CCN(c5ccccc5)CC4)ncnc32)c(C)c1	3	3	?	0	-4.8	20	24
O=C(/C=C/c1ccccc1)Nc1cccc(S(=O)(=O)Nc2ccccc2F)c1	-2	-1	1953	-22	2.6	9	6
CCCNC(=O)CSc1nc(-c2cccs2)cc(C(F)(F)F)n1	-4	-3	2647	-46	-4.0	11	4
Cc1csc(SC(C)C(=O)Nc2ccc(Cl)cn2)n1 (stereo unspecified)	9	10	2803	-12	0.3	·	·
CC(C)C(=O)Nc1cccc(C(=O)Nc2nccs2)c1	11	4	2242	-14	3.2	·	·
COC(=O)CSc1nc(C)c2ccc(OC)cc2n1	8	-2	5694	-32	4.0	11	0
Cc1nc(-c2ccc(F)cc2)c(CC(=O)N2CCN(S(=O)(=O)c3ccccc3Br)CC2)s1	2	-2	?	-15	6.6	-6	12
Cc1cc(-c2n[nH]c(=S)n2N=Cc2cccs2)n[nH]1	2	·	·	·	5.7	12	3
O=C(Nc1ccc(S(=O)(=O)N2CCOCC2)cc1)c1nn(-c2ccc(F)cc2)ccc1=O	1	-2	5785	-7	1.7	0	0
CC(=O)c1ccc(OC(=O)CCN2c3ccccc3Sc3ccccc32)cc1	2	6	1948	-13	-0.2	2	7
O=C(Nc1ccccc1)c1cc([N+](=O)[O-])ccc1NC1CCCCC1	46	19	9571	-9	-8.6	3	-3
COc1ccccc1CN1CCNC(=O)C1CC(=O)NC1CCCCCC1 (stereo unspecified)	-6	-8	5687	-18	-6.4	-8	2
C=CCNc1nc2ccccc2nc1NS(=O)(=O)c1ccc(OC)cc1	12	-6	5958	-10	2.7	5	2
CCOc1ccc(Nc2nc(Cl)nc(NCCO)n2)cc1	6	1	7800	-23	2.3	3	10
COc1ccc(NC(=O)CC2C(=O)N(C)C(=S)N2CCc2ccccc2F)cc1 (stereo unspecified)	-16	-4	3802	-15	-2.6	-13	-4
Cc1cc(C)c2c(=O)[nH]c(SCc3ccc([N+](=O)[O-])cc3)nc2n1	6	2	2023	-11	5.0	3	-7
O=C(NCc1ccccn1)c1cc(-c2ccncc2)nc2ccccc12	2	-14	·	-23	1.1	3	-4
CC1=C(C=NNc2ccc([N+](=O)[O-])cc2[N+](=O)[O-])C(C)(C)CCC1	-6	·	·	·	11	3	-1
Clc1ccccc1Nc1nc2ccccc2o1	-13	·	4394	-75	5.6	0	0
CN1CCN(Cc2cc(=O)oc3ccc(Cl)cc23)CC1	7	-5	10092	-9	2.7	12	3
Cc1onc(-c2ccccc2)c1C(=O)Nc1cccc(S(=O)(=O)N2CCCCC2)c1	-3	·	3825	-10	1.2	11	8
CCCCn1c(N)c(N(CCOC)C(=O)c2cc(C)oc2C)c(=O)[nH]c1=O	1	-2	·	-11	4.8	10	2
Cc1ccc2c(CC(=O)NCc3cccs3)coc2c1	14	10	10526	-35	1.2	10	12
CCCN(CCC)C1=NC(=Cc2ccco2)C(=O)N1c1ccccc1	34	·	·	·	1.6	10	5
CNC(=S)N(Cc1ccc(OC)cc1)Cc1cc2cc(C)ccc2[nH]c1=O	1	-4	4116	-20	6.1	-4	-1

(cont.)
SMILES	ugtP null kill	BJeLR viability	Autofluor counter	PrP 5UTR inh	RN4220 kill	Mtb hypoxia rep	Mtb hypoxia rep growth
O=S(=O)(c1ccc(N2CCN(S(=O)(=O)c3ccccc3)CC2)nc1)N1CCCC1	8	5	3419	6	8.0	9	-6
CC(C)(C)c1nnc2sc(SCC(=O)NCc3ccco3)nn2c1=O	-12	·	3841	-18	-3.5	-6	5
COc1ccc(C(=O)NCCSc2ccccc2C)cc1	6	5	3617	-79	2.1	2	6
O=C(CN1CCN(C(=O)C2COc3ccccc3O2)CC1)Nc1ccc(F)cc1 (stereo unspecified)	10	4	4310	·	6.5	12	9
Nc1ncnc2c1ncn2[C@@H]1O[C@H](CO)C[C@H]1O	·	9	4362	-21	·	·	·
CCCOC1CCCN(C(=O)c2ccc(OC3CCN(C(=O)CCOC)CC3)cc2)C1 (stereo unspecified)	2	0	5955	-24	0.7	18	8
O=CN1CCN(C(C(=O)NC2CCCC2)c2cc3c(cc2[N+](=O)[O-])OCO3)CC1 (stereo unspecified)	2	1	3390	-18	6.8	2	-4
COc1ccc(Cl)cc1NS(=O)(=O)c1cccc(C(=O)NC2CC2)c1	-4	·	3619	-6	5.7	8	1
COc1ccc(-c2csc(N(CC3CCCO3)C(=O)c3ccco3)n2)cc1 (stereo unspecified)	24	1	5727	-30	7.9	9	3
COC(=O)c1ccc(CON=Cc2ccccc2OC)cc1	37	·	·	·	4.2	6	-4
CN(CC(=O)NCCc1ccc(Cl)cc1)S(=O)(=O)c1cccs1	5	-10	3536	-18	1.3	1	7

Two of the compounds above, in markdown:
| mol | ugtP null kill | BJeLR viability | Autofluor counter | PrP 5UTR inh | RN4220 kill | Mtb hypoxia rep | Mtb hypoxia rep growth |
| --- | --- | --- | --- | --- | --- | --- | --- |
| COc1ccc(-c2csc(N(CC3CCCO3)C(=O)c3ccco3)n2)cc1 (stereo unspecified) | 24 | 1 | 5727 | -30 | 7.9 | 9 | 3 |
| COC(=O)c1ccc(CON=Cc2ccccc2OC)cc1 | 37 | · | · | · | 4.2 | 6 | -4 |

Source: PubChem (several laboratories)
